GLA inh pH 4.5: blocks human alpha-galactosidase A at pH 4.5; activity change, negative = inhibition, % at 105 µM; P06280; purified enzyme, 4-MU-alpha-Gal fluorescence, pH 4.5; 230,000 tested, under 10 active; AID 1467; inconclusive = small, poorly fitted or top-dose-only inhibition, or a rising curve; inactive = flat fitted curve, though single readings scatter; no compound was filed as active;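 further: 0% = full activity with enzyme and -100% = basal without enzyme; dose as in the result columns while the protocol names 77 µM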
Target sequence (P06280 whole entry, looked up): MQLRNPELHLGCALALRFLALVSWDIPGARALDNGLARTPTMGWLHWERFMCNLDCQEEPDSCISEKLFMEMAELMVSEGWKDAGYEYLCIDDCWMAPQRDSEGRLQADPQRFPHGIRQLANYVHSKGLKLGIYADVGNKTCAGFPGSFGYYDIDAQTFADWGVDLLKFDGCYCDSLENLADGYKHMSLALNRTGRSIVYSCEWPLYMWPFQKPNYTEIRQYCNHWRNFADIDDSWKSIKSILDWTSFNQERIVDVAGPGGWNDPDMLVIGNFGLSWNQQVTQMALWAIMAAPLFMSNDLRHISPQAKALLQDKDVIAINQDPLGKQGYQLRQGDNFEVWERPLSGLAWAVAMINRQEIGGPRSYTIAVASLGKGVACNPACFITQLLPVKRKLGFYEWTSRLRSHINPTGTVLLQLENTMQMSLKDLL
Rango complex inh: Rango-importin beta binding inhibition; hit rate 0.031% among 340,000; Q14974; AID 540263; Rango CFP/YFP FRET sensor + importin beta, 45 min; Potency, µM (top dose mostly 92.2 µM), inactives show at the highest dose inhibition of complex formation; active = rising FRET ratio curve, often small or poorly fitted; inconclusive = mostly compound fluorescence or quenching in the first reads; inactive = flat curves in all reads;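 further: potency means the concentration at half of the fitted maximal effect; 0% = DMSO wells and 100% = buffer wells lacking importin beta; nearly all actives have a fitted effect of over 15% in size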
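FRET biosensor (snurportin 1 IBB flanked by EYFP and cerulean), 50 nM, with compound 5 min, then 0.125 microM importin beta in PBS, 1 mM DTT, 0.02% Tween-20, 0.1% BSA. CFP/YFP ratio read after 45 min at room temperature; pre-read flags interference.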
Rango dissoc inh: prevents RanGTP from dissociating the Rango-importin beta complex | O95149+P62826 | Biochemical FRET Rango-importin beta, RanGTP-induced dissociation | Potency, µM (series often up to 46.1 µM), inactives show top-dose activity change, negative = inhibition | hit rate 0.071% among 340,000 | AID 540253; active means falling FRET ratio curve, often poorly fitted, with flat reads before Ran was added; inconclusive means other falling curves, or compound fluorescence or quenching; inactive means flat or rising ratio curve;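 further: potency means the concentration at half of the fitted maximal effect; % of control where 0% means no effect; nearly all actives have a fitted effect of over 45% in size; -100% = wells without RanGTP and RCC1; the record marks most hits as doubtful in a second field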
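FRET read at 45 min, room temperature: inhibitors block the CFP/YFP signal rise when RanGTP (0.6 uM Ran, 2 mM GTP, 0.2 uM RCC1) frees Rango (0.1 uM) from importin beta (0.25 uM). Pre-read after 5 min compound exposure flags interference.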
miR-21 FLuc: raises the signal of a miR-21 reporter; HeLa miR-21 FLuc reporter, luciferase, 48 h; Potency, µM (highest dose often 38.3 µM), inactives show top-dose reporter change, positive = more light; 340,000 tested, under 10 active; active = well fitted rising curve with a large enough effect; inconclusive = small, poorly fitted or top-dose-only effect; inactive = no such curve, though single readings can be large or run the other way;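 further: % of control where 0% means no effect; miR-21 action dims this reporter so a rising signal means less miR-21 action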
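Compounds were titrated across several concentrations (up to approximately 40 uM) and incubated 48 hours with HeLa miR-21-FLuc reporter cells (miR-21 target sequence downstream of FLuc, endogenous miR-21). Readout was firefly luciferase luminescence after lytic detection reagent.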
* = called active by the depositor; ? = inconclusive; . = no result given; & = joins results of further samples; [ ] = remark or other dose.

Each structure is followed by: miR-21 FLuc | Rango complex inh | GLA inh pH 4.5 | Rango dissoc inh
> CC(C)CC(=O)N1CC(=O)Nc2ccc(F)cc2C1c1ccccc1 (stereo not given)
    0%&0% | -0.3% | . | 6%
> CCOC(=O)C1CCN(c2cc(C)nc3ccc(OC)cc23)CC1
    23% | 3.3% | -15 | 2%
> CCOC(=O)COc1cccc2c(=O)n(CC(=O)NCCc3ccccc3)ccc12
    -5% | -0.3% | 2 | 15%
> O=C(CSc1nnc2scc(-c3ccc(Cl)cc3)n12)NCc1ccco1
    2% | -0.2% | -5 | 6%
> CCCCn1c(N)c(N(CC(C)C)C(=O)c2ccc(N(C)S(=O)(=O)c3ccc(C)cc3)cc2)c(=O)[nH]c1=O
    . | 0.2% | . | 8%
> CC(C)Cc1nnc(NS(=O)(=O)Cc2ccccc2)s1
    -1% | -0.1% | 0 | 4%
> CCc1ccccc1NC(=O)CCC(=O)N1CCSc2ccccc21
    3% | -3.1% | . | -1%
> C=C1CCC2[C@](C)(CO)[C@H](O)CC[C@@]2(C)[C@@H]1C/C=C1\C(=O)OC[C@H]1O (stereo not given in full)
    . | -0.6% | . | 0%
> O=C(c1sc2ccccc2c1Cl)N(Cc1ccccc1)C1CCS(=O)(=O)C1 (stereo not given)
    -14% | -0.6% | 2 | -1%
> CN(Cc1ccccc1)S(=O)(=O)c1ccc(N2CCCC2=O)cc1
    . | -0.2% | . | -11%
> O=C1c2ccccc2NC(c2ccc(O)cc2)N1Cc1ccco1 (stereo not given)
    2% | 3.1% | 10 | -4%
> CC(=O)NNc1ncnc2c1cnn2-c1ccc(C)c(C)c1
    -52% | ? | -3 | -8%
> O=C(Cn1c(C(F)(F)F)nc2ccccc21)c1ccc(Cl)cc1
    -5% | 4.5% | 1 | 13%
> O=C(O)c1ccccc1C(=O)NC1=NN(c2ccccc2)CC1
    -14% | 1.6% | . | -10%
> CCOC(=O)CN(C(=O)CSc1nnc(CNc2ccc(C)cc2C)o1)c1ccccc1
    -2% | -5.7% | -4 | -3%
> CCC1CCCCN1CCCNC(=O)C1CCN(c2nnc(-n3cccc3)s2)CC1 (stereo not given)
    -4% | -4.7% | . | 22%
> CCN(CC)S(=O)(=O)c1ccc(C(=O)Oc2ccc3c(c2)OCO3)cc1
    -11% | 0.6% | -17 | 1%
> Cc1nn(Cc2ccc(Cl)cc2)c2sc(C(=O)O)cc12
    -2% | 0.5% | 3 | 15%
> CCOC(=O)c1ccc(NC(=O)CN2C(=O)CCC2=O)cc1
    -1% | 1.0% | 5 | 2%
> C/C(=N/NC(=O)Cc1c(C)[nH][nH]c1=O)c1ccc(O)cc1
    -4% | -3.0% | -3 | -3%
> COc1ccc(N(Cc2cc3ccccc3[nH]c2=O)S(C)(=O)=O)cc1
    -4% | 0.8% | 3 | 4%
> COc1ccc(CNC(=O)CSc2ccc(Br)cc2)cc1OC
    -2% | 0.6% | 13 | -14%
> COc1cc2c(C(=O)N3CCN(c4ccccc4F)CC3)cn(C)c(=O)c2cc1OC
    -2% | -0.7% | 4 | 19%
> N#Cc1cccc(NC(=O)CNc2cccc(S(=O)(=O)N3CCCC3)c2)c1
    . | -5.3% | . | -9%
> CCOCCCNc1ccc(N2C(=O)CCCC2=O)cc1[N+](=O)[O-]
    0% | 0.8% | . | 10%
> CC1=C(C(=O)Nc2ccccc2)C(c2ccc3c(c2)OCO3)C2=C(CCCC2=O)N1 (stereo not given)
    -6% | ? | -5 | -14%
> O=C(NC1CCCCCC1)c1nc2ncccn2n1
    -10% | 3.8% | 6 | -12%
> CC1CN(C(C)C)C(=S)NC1=O (stereo not given)
    . | 4.5% | . | 0%
> CCOC(=O)COc1ccc2ccccc2c1/C=C/[N+](=O)[O-]
    ? | 2.0% | 3 | -1%
> CCCCN(C(C)=O)C1CC(=O)N(c2ccc(OCCC)cc2)C1=O (stereo not given)
    4% | -2.9% | -7 | 4%

Each structure is followed by: miR-21 FLuc | Rango complex inh | GLA inh pH 4.5 | Rango dissoc inh
> Cc1ccc(C)n1-c1cccc(NC(=O)c2ccccc2)c1
    -9% | ? | -1 | 4%
> CC1CC(C)CN(C(=O)C2CCC(CNc3c(N4CCCCC4)c(=O)c3=O)CC2)C1 (stereo not given)
    0% | 2.3% | 2 | 16%
> COC(=O)C(C(=O)Nc1ccccc1C)C1CCCC1 (stereo not given)
    -2% | -0.8% | 0 | 1%
> CC(C)(C)OC(=O)[C@H](Cc1ccccc1)NC(=O)c1[nH]cnc1C(=O)N[C@@H](Cc1ccccc1)C(=O)OCc1ccccc1
    19% | 6.8% | . | -9%
> O=C(COC(=O)/C=C/c1c(F)cccc1Cl)NCC1CCCO1 (stereo not given)
    . | 1.5% | . | -14%
> Cc1ccc(C)c(N2CCN(S(=O)(=O)c3ccc4c(c3)OCCO4)CC2)c1
    -4% | 7.6% | -7 | 23%
> CSc1ccccc1C(=O)NC1CCSc2ccccc21 (stereo not given)
    -12% | 1.2% | . | -25%
> CC1(C)Cc2c(C#N)c(SCCC#N)nc(N3CCOCC3)c2CO1
    0% | -1.8% | . | 2%
> CC(C)NC(=O)c1cc(-c2ccco2)on1
    -38% | -3.0% | 4 | -4%
> CC(=O)Nc1ccc(-c2nnc(SCC(=O)NCc3ccco3)n2C)cc1
    -1% | 1.4% | 6 | 11%
> Cc1ccc(CNS(=O)(=O)c2ccc3c(c2)C(C)(C)C(=O)N3C)cc1
    1% | 0.0% | . | 2%
> O=C(COC(=O)c1oc2ccccc2c1COc1ccccc1)NCCN1C(=O)CSC1=O
    -1% | -1.8% | -25 | -7%
> Cc1cc(=O)oc2c(C)c(OC(C)C(=O)NCC3CCC(C(=O)O)CC3)ccc12 (stereo not given)
    -3% | 1.5% | . | -3%
> O=C(N/N=C/c1c[nH]c2ccc(Br)cc12)c1ccn(Cc2ccc(Cl)cc2)n1
    18% | -3.1% | -25 | -3%
> O=C(NC1CCCC1)C(c1ccccc1)N(C(=O)c1ccno1)c1ccccc1 (stereo not given)
    -3% | 0.0% | 5 | 19%
> O=c1c(Br)c(N2CCCC2)cnn1-c1ccccc1
    -64% | -0.3% | 1 | 4%
> Clc1cccc(CN2CCC(Cc3ccccc3)CC2)c1
    0% | 6.0% | -22 | 0%
> O=C(COC(=O)Cc1ccccc1F)Nc1ccc(SC(F)F)cc1
    2% | -1.0% | 10 | -4%
> CCc1ccc(/C([O-])=C(/C(=S)NCCN2CCOCC2)[n+]2ccccc2)cc1
    -8% | ? | 3 | -13%
> CCN(CC)C(=O)CSc1ncnc2c1cnn2Cc1ccccc1
    11% | -0.8% | 0 | -3%
> Cc1noc(C)c1CSCC(=O)N(C)CC(=O)Nc1ccc(Cl)c(Cl)c1
    . | -0.1% | . | 1%
> CCC(C)c1ccc(NC(=O)C2CCN(c3ccc(C(F)(F)F)cn3)CC2)cc1 (stereo not given)
    -10% | 0.0% | 0 | 10%
> CC(C)(C)OC(=O)C[C@@H]1C/C=C\C[C@H](CC(=O)N[C@H](CO)Cc2ccccc2)C(=O)N[C@H](Cc2ccccc2)COC1=O
    . | 0.7% | . | 1%
> Cn1c(COc2ccc(F)cc2)nnc1SCC(=O)NC1CC1
    -2% | -3.0% | . | 6%
> COc1ccc(C(=O)NCCNC(=O)c2cnccn2)cc1OC
    0% | -1.4% | . | 7%
> N=c1c(C(=O)NC2CCCCC2)cc2c(=O)n3ccccc3nc2n1CCc1ccccc1
    -1% | ? | . | ?
> COc1ccc(C2=Nc3cc(C)ccc3OC2)cc1
    -37% | ? | -6 | -8%
> COc1cccc(-c2ccc3c(c2)S(=O)(=O)c2cccc(C(=O)O)c2C3=O)c1OC
    . | 3.7% | . | 8%
> Cc1ccc(/C=N/NC(=O)CSc2nc3nc(C)cc(C)n3n2)cc1
    -10% | 4.8% | 9 | 10%
> CCOC(=O)C1=CN(CC)S(=O)(=O)NC1c1ccc(C(F)(F)F)cc1 (stereo not given)
    . | -0.8% | . | -11%

Each structure is followed by: miR-21 FLuc | Rango complex inh | GLA inh pH 4.5 | Rango dissoc inh
> O=C(Nc1ccccc1)C1=C[C@H](c2ccccc2)C[C@H](OCc2ccc(CO)cc2)O1
    -18% | 3.4% | -23 | -13%
> O=C(CS(=O)CC(=O)Nc1ccccc1-c1ccccc1)Nc1ccc(F)cc1 (stereo not given)
    0% | -1.8% | . | 9%
> CC(=O)Nc1ccc(S(=O)(=O)N2CCN(C3CCCCCCC3)CC2)cc1
    -1% | -4.3% | -1 | -11%
> CCOc1ccc(OCCOCCOc2ccccc2Cl)cc1
    -9% | 0.8% | -16 | -26%
> O=C1C(NS(=O)(=O)c2cccs2)=C(N2CCN(c3cccc(Cl)c3)CC2)C(=O)c2ccccc21
    -3% | -1.5% | -5 | -6%
> CCC12CN(S(=O)(=O)c3ccc(C)cc3)CC(CC)(CN(S(=O)(=O)c3ccc(C)cc3)C1)C2=O
    2% | 3.6% | -3 | 8%
> COC(=O)c1ccccc1NC(=O)COC(=O)c1ccco1
    0% | -0.8% | -6 | 8%
> COc1cc(N2Cc3ccccc3C2)ccc1C=O
    -60% | 0.2% | . | 10%
> CCCCc1ccc(/C=C(\C#N)C(N)=S)s1
    3% | 5.5% | 5 | -7%
> O=C(Nc1ccc(OCC(F)(F)C(F)F)c(C(F)(F)F)c1)c1ccccc1
    . | 0.8% | . | 4%
> NNC(=O)c1n[nH]c(=O)c2ccccc12
    5% | -1.3% | 0 | 19%
> CN1CCN(CC(O)COc2ccc(Cl)cc2)CC1 (stereo not given)
    -27% | -0.8% | 3 | -3%
> O=C(Nc1ccccc1)C1CC2CCCC(C1)C2=O (stereo not given)
    -1% | 1.9% | -22 | 27%
> CC1Cc2nc(SCC(=O)NCCc3ccccc3)n(C)c(=O)c2S1 (stereo not given)
    -10% | 0.3% | -2 | 5%
> O=CNc1ccc2c3c(cccc13)-c1ccccc1-2
    . | ? | . | ?
> O=C(c1ccccn1)N(Cc1cc2ccccc2[nH]c1=O)C1CCCCC1
    1% | -0.3% | -2 | 0%
> O=c1[nH]cc(S(=O)(=O)Nc2ccc3c(c2)OCO3)c(=O)[nH]1
    . | -1.3% | . | 1%
> Cc1cccc2c(N=Nc3ccc(S(=O)(=O)Nc4ccc(Cl)cc4)cc3[N+](=O)[O-])c(O)[nH]c12
    -1% | -2.3% | -19 | -6%
> Cc1ccc(C(=O)Nc2cc([N+](=O)[O-])ccc2F)s1
    -15% | -1.6% | 5 | 6%
> Cc1ccc(N=C2C(=O)Nc3ccccc32)cc1
    0% | 2.1% | . | 7%
> O=C(COC(=O)c1ccccc1C(=O)c1ccccc1)NCCc1ccccc1
    0% | 0.0% | 11 | -2%
> CCC(=O)N1CCc2cc(S(=O)(=O)NCCC(=O)NC3CCCCCC3)ccc21
    0% | 2.1% | . | 15%
> COc1ccc(S(=O)(=O)N2CCOCC2)cc1NC(=O)Cc1ccc2c(c1)OCCO2
    . | -3.1% | . | ?
> Cc1noc(C)c1COc1ccc(CC(=O)NC2CCCCCC2)cc1
    5% | 1.5% | 4[21.1 µM] | -3%
> N#C/C(=N\Nc1ccccc1)C(N)=S
    22% | -4.0% | -15 | -9%
> Cc1nnc(SCC(=O)NCc2ccccc2)[nH]c1=O
    -1% | 4.6% | -10 | 20%
> O=C(NC1(Cc2ccccc2)CCN(Cc2ccc(-c3ccccc3)cc2)C1=O)c1ccccc1 (stereo not given)
    . | 0.0% | . | -8%
> CCOc1ccc(CCNC(=O)CCNC(=O)c2ccco2)cc1OCC
    -4% | -4.1% | . | 6%
> CC(=O)c1cc(-c2ccccc2)n(CC(=O)NC(C)(C)C)c1C
    4% | 4.1% | -7 | 4%
> O=C(CCn1cccc1)Nc1cccc(F)c1
    -8% | -0.9% | 3 | 0%
> O=C(NCC1CCCO1)c1onc(CSc2ccccc2)c1C(=O)O (stereo not given)
    0% | -0.1% | 8 | -4%
> CCCNC(=O)Cn1sc2nc(C)cc(C)c2c1=O
    26% | -0.2% | -3 | ?

These rows are one share of the data. The share of hits here may be higher or lower than overall.
